Compound activity (PubChem)
NPR1 antag = blocks ANP-stimulated signaling of human Npr1 receptor; 76,000 tested, 1.6% active; AID 1347048; HEK293 hNpr1 GloSensor cGMP, ANP-stimulated luminescence; Potency, µM (highest dose often 46.3 µM), for inactives: at the top dose activity change, negative = inhibition, usual class: inhibitors; active = well fitted inhibition curve with a large enough effect; inconclusive = small, poorly fitted or top-dose-only effect; inactive = no such curve, though single readings can be large or run the other way;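 further: nearly all actives have a fitted effect of over 60% in size; nearly all hits also lower the signal before the agonist is added; a reference antagonist and vehicle were the controls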
Target sequence (P16066 whole entry, looked up): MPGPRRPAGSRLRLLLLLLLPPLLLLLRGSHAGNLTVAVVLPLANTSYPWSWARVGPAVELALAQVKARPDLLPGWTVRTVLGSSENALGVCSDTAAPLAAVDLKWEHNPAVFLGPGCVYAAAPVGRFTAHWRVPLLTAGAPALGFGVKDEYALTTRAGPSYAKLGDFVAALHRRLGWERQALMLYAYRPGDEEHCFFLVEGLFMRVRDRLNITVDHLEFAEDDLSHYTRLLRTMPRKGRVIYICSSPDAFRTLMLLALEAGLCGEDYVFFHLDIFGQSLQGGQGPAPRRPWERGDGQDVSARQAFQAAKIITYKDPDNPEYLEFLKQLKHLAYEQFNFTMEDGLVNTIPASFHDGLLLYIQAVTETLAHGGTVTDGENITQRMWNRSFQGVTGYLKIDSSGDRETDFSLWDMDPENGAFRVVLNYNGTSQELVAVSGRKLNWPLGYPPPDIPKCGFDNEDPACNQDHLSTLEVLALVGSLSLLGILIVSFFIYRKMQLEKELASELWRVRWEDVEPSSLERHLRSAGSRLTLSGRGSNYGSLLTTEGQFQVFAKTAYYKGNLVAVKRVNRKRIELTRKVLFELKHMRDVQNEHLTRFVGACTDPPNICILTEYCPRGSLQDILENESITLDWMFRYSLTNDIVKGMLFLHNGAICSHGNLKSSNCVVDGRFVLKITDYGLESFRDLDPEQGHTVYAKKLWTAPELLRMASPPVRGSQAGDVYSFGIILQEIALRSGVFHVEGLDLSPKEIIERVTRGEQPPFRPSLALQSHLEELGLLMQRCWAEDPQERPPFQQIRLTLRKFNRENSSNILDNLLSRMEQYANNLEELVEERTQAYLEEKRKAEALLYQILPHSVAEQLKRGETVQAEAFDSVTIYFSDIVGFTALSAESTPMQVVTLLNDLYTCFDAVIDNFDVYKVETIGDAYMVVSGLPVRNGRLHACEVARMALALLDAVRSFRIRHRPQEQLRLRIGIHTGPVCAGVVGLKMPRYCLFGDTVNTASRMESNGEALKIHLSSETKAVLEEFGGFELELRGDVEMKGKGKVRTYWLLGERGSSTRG
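Compound pre-incubated 30 min at room temperature on GloSensor-loaded HEK293 cells stably carrying hNpr1 and the pGS-40F cGMP biosensor. Stimulation uses hNppA at 0.1 nM final; luminescence is taken at baseline and 20 min post-agonist.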
* hit, by the source's call; ? = inconclusive; & = joins results of further samples; [ ] = another dose, or the depositor's remark. On the % scale 0 is the no-effect control and ±100 the full control effect; potency means the concentration at half of the fitted maximal effect.

SMILES	NPR1 antag
CCOc1ccc2c(n1)CCN(C(=O)c1ccco1)C2	-23.8%
NCCO[C@H]1C[C@@H](O)C12CCN(S(=O)(=O)c1cccnc1)CC2	7.7%
O=C(O)CCCC(=O)N[C@H]1CO[C@H]2[C@@H]1OC[C@@H]2Nc1nccc(-c2ccc(-c3ccccc3)cc2)n1	-30.5%
Cc1noc(C)c1S(=O)(=O)N1CCCC(Cc2noc(-c3ccncc3)n2)C1 (stereo unspecified)	-13.5%
COc1ccc(-c2noc(-c3ncn4c3COC(c3ccc(F)cc3)C4)n2)cc1OC (stereo unspecified)	3.7%
O=C(NC1CCCC1)c1cc(CN2CCOCC2)on1	4.3%
COc1cccc(-c2n[nH]c3c2CN(C(=O)c2oc(C)cc2C)CC3)c1	?
COc1ccc(-c2ccccc2NC(=O)C2CCCN2C(=O)CC(C)(C)C)cc1 (stereo unspecified)	-16.2%
O=C(NC1CCCCC1)C1CN(C(=O)c2ccccc2Br)CC12CCOCC2 (stereo unspecified)	6.9%
COc1ccccc1N1CCN(C(=O)CC[C@]23CC[C@](C)(O)C[C@H]2C(C)(C)C[C@@H]3NC(=O)c2ccc(C(F)(F)F)cc2)CC1	1.1%

Two entries from above, comma-delimited:
canonical_smiles,NPR1 antag
NCCO[C@H]1C[C@@H](O)C12CCN(S(=O)(=O)c1cccnc1)CC2,7.7%
O=C(O)CCCC(=O)N[C@H]1CO[C@H]2[C@@H]1OC[C@@H]2Nc1nccc(-c2ccc(-c3ccccc3)cc2)n1,-30.5%

The list goes on:
SMILES	NPR1 antag
Cc1ccc2c(C(=O)N3CCOCC3)cc(NC(=O)C(C)C)cc2n1	-1.6%
O=C(CCc1c[nH]c2ccccc12)N1CCC([C@@H]2CNC[C@H]2CO)CC1	2.5%
Cc1ccc(C)c(NC(=O)CN2C(=O)NC3(CCCCC3)C2=O)c1	0.0%
COc1cccc(N2C(=O)N[C@@H]3CCN(C(=O)c4ccc(C(F)(F)F)cc4)[C@@H]3C2=O)c1	6.6%[70.6 µM]
COc1cc2c(cc1OC)C(CNC(=O)CC(C)C)N(C(=O)Nc1cccc(C)c1)CC2 (stereo unspecified)	0.1%
O=C(NC1CCN(c2cc(-c3ccc(Cl)cc3)[nH]n2)CC1)c1ccccn1	?
N#Cc1cccc(CN2CC(CNC(=O)C3CCOCC3)C3(C2)CN(c2ccccc2)C3)c1 (stereo unspecified)	-0.9%
O=C(C1=NO[C@@H]2CN(Cc3ccc(F)cc3)C[C@H]12)N1CCN(c2ccccn2)CC1	-2.6%[70.6 µM]
CNC(=O)CCn1ncc2cc(OCc3ccccc3-c3ccccc3C)ccc21	-17.8%[70.6 µM]
COc1ccc(-c2cc(N3CCCN(C(=O)c4cnccn4)CC3)n[nH]2)cc1	-2.2%
CCNC(=O)[C@@H]1C[C@H](NC(=O)CSc2ccccc2)CN1C1CCCC1	5.2%
CC1=C[C@@H](CNCc2ccc(C#N)cc2)[C@H](C(C)C)C[C@H]1Cc1nnc(-c2cccnc2)o1	-11.5%
Fc1ccc(CN2CCC3(CC2)CC(c2cccnc2)=NO3)cc1	-4.7%&-6.7%[70.6 µM]
Fc1ccc(CN2CCNc3cnc(OCc4cccnc4)cc3C2)cc1F	?
COc1ccc(-c2nnc3n2CCN([S+](=O)([O-])c2c(C)noc2C)C3)cc1	3.4%
O=C(c1ccc(-c2ccc(N3CCSCC3)nc2)cc1)N1CCOCC1	?
COc1ccc(C(=O)Nc2ccc(-c3nnc4n3CCCC4)cc2)cc1F	-0.2%
Cc1ccc(C(=O)N2CC[C@H](N3CCOCC3)[C@H](CCCO)C2)cc1Cl	-2.8%
c1ccc(Nc2cc3c(cn2)NCCN(Cc2ccsc2)C3)cc1	-3.2%[70.6 µM]
CCCCN1C(=O)c2ccccc2C(C(=O)Nc2nncs2)C12CCCC2 (stereo unspecified)	0.8%
COc1cccc(CN2Cc3nc(-c4ccsc4)ccc3OCC2=O)c1	-10.6%[70.6 µM]
O=C(Cc1cccc(Cl)c1)N1CCC2(C1)C(=O)N(CCc1ccccc1)c1ccccc12 (stereo unspecified)	0.0%&-25.7%
CN(C)CCCOc1ccc(-c2cnc(N)cn2)cn1	-1.7%
O=C(NCc1ccc(F)cc1)c1cnc2n[nH]c(-c3ccccc3)c2n1	-26.5%[70.6 µM]
COc1cccc(C(=O)NC2CCN(c3cc(-c4ccc(Cl)cc4)[nH]n3)CC2)c1OC	?
CCCS(=O)(=O)N1CC[C@H](c2nc(C)no2)[C@H](NC(=O)C2CC2)C1	-6.8%
Cc1noc([C@@H]2CC(F)(F)CN2C(=O)c2ccoc2)n1	3.4%
Cc1n[nH]c(C)c1CCC(=O)N1CC[C@@H](NC(=O)c2cccnc2)[C@H](O)C1	3.1%
C[C@]1(CO)C2CC[C@@H](O)[C@@H](CC(=O)N3CC[C@@H](O)C3)[C@]2(C)CC[C@H]1OC(=O)Nc1ccc(Oc2ccccc2)cc1 (stereo partly specified)	0.7%
O=c1c2c(n(Cc3cccnc3)n1-c1ccccc1)CN(Cc1ccccc1Cl)CC2	-5.8%[70.6 µM]
C=CCC1(C(=O)O)CCCN(Cc2ccc(OC)c(COC)c2)C1 (stereo unspecified)	4.8%
O=C(c1ccccn1)N1CCC2(Cc3ccccc3NC2=O)C1 (stereo unspecified)	-1.9%[70.6 µM]
COc1ccc(OC)c(CNC(=O)c2ccc3c(c2)N(S(C)(=O)=O)CC3)c1	1.4%
O=C1NC2(CN([S+](=O)([O-])c3cccc(C(F)(F)F)c3)C2)Oc2ccccc21	-18.2%
O=C(NC1CC1)[C@@H]1C[C@H](Oc2ccccc2)CN1S(=O)(=O)c1cccc(F)c1	4.3%
Cc1ccccc1-c1nc(N2CCOCC2)cc2c1CN(Cc1cnn(C)c1)C2=O	-0.1%[70.6 µM]
COCCNC(=O)[C@H]1CCC[C@H]1NC(=O)c1cnc(C)cn1	2.1%
O=C(COc1ccc(F)cc1)N1CCC(Cc2nncn2Cc2ccccc2)C1 (stereo unspecified)	0.6%
CCOC(=O)c1ccc(NC(=O)Cn2ccn3nc4c(c3c2=O)CCCCC4)cc1	-3.9%
CCN(CC)Cc1cnc2c(C(=O)NCC(C)c3ccccc3)cnn2c1 (stereo unspecified)	-0.8%
CCS(=O)(=O)c1ccc2oc([C@H]3CCN(C(C)C)C3)nc2c1	-0.8%[70.6 µM]
CC(=O)NCCC1CCN(C(=O)Nc2ccc(C)cc2)CC1	-21.1%
Cc1ccc(CNC(=O)N2CCC3(CC2)CC(C(=O)N2CCOCC2)N(C)C3)cc1 (stereo unspecified)	-7.2%
O=C(NCCC1CCN(C(=O)Nc2cc(F)ccc2F)CC1)c1ccccc1	2.9%
COc1ccc(-c2cc(N3CCCC(NC(=O)c4sccc4C)C3)n[nH]2)cc1 (stereo unspecified)	-12.7%
CCc1cccc(NC(=O)CC2CCCN(c3cnn(CC4CC4)c(=O)c3)C2)c1 (stereo unspecified)	-11.1%
COCCn1cc(CN(C)Cc2ccccc2)ccc1=O	-1.6%
CCn1nc(C)c(CCC(=O)NC2CCCc3c2[nH]c2c(Cl)cccc32)c1C (stereo unspecified)	-1.2%
CN1[C@@H](CCC(=O)Nc2ccccc2)CNC(=O)[C@@H]2[C@H]1CCN2Cc1ccc(C(F)(F)F)cc1	2.3%
Cc1nn2c(c1-c1ccccc1-c1ccccc1)N(CC1CC1)CCC2	2.82µM*
(further entries)
SMILES	NPR1 antag
COc1cccc(Nc2ncc3c(n2)C(C)(C(=O)NCCCn2ccnc2)CC3)c1 (stereo unspecified)	1.4%[70.6 µM]
Cc1csc(NC(=O)c2nc(C(O)c3cccc(O)c3)oc2C)n1 (stereo unspecified)	?
O=C(Cn1cccc1-c1nc(-c2ccccc2)no1)Nc1ccccc1F	5.8%
Cn1nccc1C(=O)N1CCC(N2C[C@H](O)C[C@H]2C(=O)NC2CCCCC2)CC1	-0.1%
CCN1CCN(C(=O)C2CCc3ncc(-c4ccsc4)n3C2)CC1 (stereo unspecified)	2.9%
O=C1COc2ccc(N3CCOCC3)nc2CN1Cc1ccc(F)cc1	-22.2%[70.6 µM]
COCCNC(=O)[C@H]1C[C@H](Oc2cccnc2)CN1C(=O)NC1CCCCC1	0.0%
COCC1CN(C)CC12CCN(C(=O)CCc1ccccc1OC)CC2 (stereo unspecified)	-8.5%
CCSc1ncc(CN2CC[C@@H](NC(=O)c3cnccn3)[C@H](O)C2)cn1	7.6%
CCCCc1nc(C)cc(NCCn2ccc3[nH]c(=O)c(C#N)cc3c2=O)n1	4.3%
COCCN1C(=O)CC[C@]2(C(=O)NCc3cccc(OC)c3OC)CCCC[C@@H]12	0.0%
CNC(=O)[C@@H](c1ccc(Cl)cc1)N1CCC[C@H]1C(=O)NC(C)(C)C	2.3%[70.6 µM]
Cc1ncsc1CN1CCCOCCNC(=O)[C@@H]2CCCC[C@@H]21	-3.2%
CN(c1ccccc1)c1cc(=O)c2ccnc(NCc3cnccn3)c2o1	3.0%[70.6 µM]
N#Cc1ccc(CN2CCC3(CC2)NC(=O)c2ccccc2O3)cc1	-3.8%[70.6 µM]
Cc1ccsc1C(=O)N1CC(Oc2ccccc2-c2nc(-c3cnccn3)no2)C1	-0.8%
O=C(NC[C@H]1Cn2ccnc2CO1)c1ccccc1	12.0%[70.6 µM]
Cc1cccc(-n2cc(CN(C)C(C)c3ccon3)c(-c3cccc(F)c3)n2)c1 (stereo unspecified)	-6.1%
COCCNC(=O)C[C@@H]1C[C@H]2O[C@H](CNCc3cnccc3Cl)[C@@H](O)[C@H]2O1	1.7%[70.6 µM]
O=C(c1cccnc1)N1CC2CC(C1)[C@H]1CCCC(=O)N1C2 (stereo partly specified)	5.3%
CC(C)C(NC(=O)c1cccc(C#N)c1)C(=O)N1CCN(c2ccccn2)CC1 (stereo unspecified)	0.6%
CN1CCN(Cc2ccc(Nc3ncc(-c4cccnc4)c4c3OCC4)cc2)CC1	-0.1%[70.6 µM]
Cc1cccc(CN2CCCC(O)(CNCc3ncccc3C)C2=O)c1 (stereo unspecified)	-7.2%
Cc1ccc(C(=O)N[C@@H]2CN(Cc3ccncc3)C[C@H]2CN(C)C)cc1C	3.0%
COc1ccc(-c2cc3c(=O)n(CCNC(=O)Cc4ccc(C)cc4)ccn3n2)cc1	?
COCCNC(=O)N1CCc2nc(N(C)C)[nH]c(=O)c2CC1	-4.4%
CC1Oc2ccc(NC(=O)c3c(F)cccc3F)cc2CN(Cc2ccc(Cl)cc2)C1=O (stereo unspecified)	-27.4%
COc1ccc(C(=O)N2CCC3(CC2)N(C)C(=O)CS3(=O)=O)cc1OC	4.3%
Cc1cc(-c2cc3c(ccn3C)c(C(=O)NCc3c(C)cc(C)[nH]c3=O)n2)ccn1	-9.4%[70.6 µM]
CN(C)c1cc(N2CCCC(NC(=O)Cc3ccccc3)C2)ncn1 (stereo unspecified)	3.0%
CN(C)C(=O)NCc1cc2n(n1)CCN(Cc1cn[nH]c1-c1ccccc1)C2	-2.2%
COc1cc(OC)cc(C(=O)Nc2cccc(-c3nnc4n3CCCC4)c2)c1	0.8%
Cn1ncc(N2CCC(NC(=O)Cc3cccc(F)c3)CC2)cc1=O	-0.9%
CC1(C)C[C@H](NC(=O)c2ccc(C#N)cc2)[C@@]2(CCC(=O)NCCc3c[nH]c4ccccc34)CC[C@](C)(O)C[C@@H]12	1.1%
Cn1c(CN2C(=O)C3(CCOCC3)CC2c2nnnn2C(C)(C)C)nc2ccccc21 (stereo unspecified)	2.1%
CCNC(=O)CCc1c(C)nn(-c2ccc(F)cc2)c1Oc1ccccc1F	-16.9%
OC[C@@H]1CN(Cc2cccnc2)C[C@H]1c1ccccn1	-1.6%
CN(CCc1noc(C2CC2)n1)C(=O)c1cc(-c2ccc(O)cc2)n[nH]1	4.2%
CN(C)C[C@@H]1CN(S(C)(=O)=O)C[C@H]1NC(=O)c1c(F)cccc1Cl	0.8%
CN(Cc1ccc(F)cc1)Cc1ccccc1OCC(O)CN1CCCCC1 (stereo unspecified)	7.0%

Fetched by structure from the entries so far:
SMILES	NPR1 antag
Cn1ncc(N2CCC(NC(=O)Cc3cccc(F)c3)CC2)cc1=O	-0.9%
Cn1c(CN2C(=O)C3(CCOCC3)CC2c2nnnn2C(C)(C)C)nc2ccccc21 (stereo unspecified)	2.1%

Additional structures:
SMILES	NPR1 antag
CC(C)NC(=O)N1CCN2C(=O)N(C(C)C)C(=O)[C@H]2C1	-1.4%[70.6 µM]
COc1cccc(-c2cc3c(=O)n(CCNC(=O)Cc4cccc(F)c4)ccn3n2)c1	-2.5%
CNC(=O)CCn1ncc2cc(OCc3ccccc3-c3ccc(F)cc3)ccc21	-10.4%[70.6 µM]
COCC1CN(C(C)=O)CC12CCN(S(=O)(=O)c1cnc[nH]1)CC2 (stereo unspecified)	2.4%
CC(=O)N1CCC(C(=O)N[C@H]2CCN3C(=O)N(c4ccc(Cl)cc4)C(=O)[C@@H]3C2)CC1	4.1%[70.6 µM]
Cc1cccc(OCC(=O)NCc2nnc3c(-c4nc(C)no4)cccn23)c1	-4.8%
CC1(C)[C@H](Cc2cc(CC3CCCCC3)on2)C[C@@H]1NC(=O)c1ccccc1	?
COc1ccc(-c2ccccc2)cc1N1C(=O)[C@@H]2C[C@H]1CN2C(=O)CNC(N)=O	-1.3%
CCCNC(=O)N1CCCC(c2noc(COCC)n2)C1 (stereo unspecified)	3.2%
CCN1c2cc(C(=O)Nc3ccc(C(C)C)cc3)ccc2C(=O)N2CCCCC21 (stereo unspecified)	4.0%
O=C(O)C[C@@H]1CCN(C(=O)Nc2ccc(C(F)(F)F)cc2)C[C@@H]1CCN1CCN(c2ccccn2)CC1	-2.3%

Quoted from the listing (two entries):
SMILES	NPR1 antag
CCN1c2cc(C(=O)Nc3ccc(C(C)C)cc3)ccc2C(=O)N2CCCCC21 (stereo unspecified)	4.0%
O=C(O)C[C@@H]1CCN(C(=O)Nc2ccc(C(F)(F)F)cc2)C[C@@H]1CCN1CCN(c2ccccn2)CC1	-2.3%

A portion of the library; rates above refer to the full screens.
